VACV mCherry inh = inhibitors of vaccinia virus infection (mCherry reporter signal) | Vaccinia virus mCherry reporter infection, fluorescence; about a quarter of the inactives have no number | Potency, µM (titrated, usually from 36.5 µM), inactives show at the highest dose activity change, negative = inhibition, usual class: inhibitors | 310,000 tested, 0.63% active; active = well fitted inhibition curve with a large enough effect; inconclusive = small, poorly fitted or top-dose-only effect; inactive = no such curve, though single readings can be large or run the other way; tested in A549 cells; also: nearly all actives have a fitted effect of over 35% in size; inactives centre near -10
Vaccinia Venus = vaccinia inhibition (Venus reporter); 330,000 tested, 0.46% active; Potency, µM (doses to about 36.5 µM), for inactives: top-dose activity change, negative = inhibition, most hits filed as inhibitors; Vaccinia virus Venus reporter expression, fluorescence; AID 720580; active means well fitted inhibition curve with a large enough effect; inconclusive means small, poorly fitted or top-dose-only effect; inactive means no such curve, though single readings can be large or run the other way; tested in A549 cells; also: nearly all actives have a fitted effect of over 30% in size; inactives centre near -10
The depositor's hits bear a star; i = inactive; ? = inconclusive; nt = not tested or not shown; & = joins results of further samples; [ ] = remark or other dose. % is scaled to controls: 0 for no effect and ±100 for the full control effect; potency is read from the fitted curve at half-maximal effect. Outcome played no part in choosing rows (roughly 0.87% active in at least one column).

SMILES	VACV mCherry inh	Vaccinia Venus
Cc1ccc(C)c(CN2C(=O)c3ccccc3S(=O)(=O)c3ccc(C(=O)N4CCCCC4)cc32)c1	-7%	-4%
CCOC(=O)N1CCN(C(=O)COC(=O)c2ccc([N+](=O)[O-])cc2Cl)CC1	?	-1%
CCn1c(SCc2ccccc2)nc2cc(S(N)(=O)=O)ccc21	-1%	0%
CCOc1ccc(NC(=O)CCC(=O)c2ccc(-c3ccccc3)cc2)cc1	i	-7%
CCOc1ccc(NC(=O)CN2CCN(CC(=O)Nc3ccc(F)cc3F)CC2)cc1	-7%	-14%
O=C(Nc1ccccc1C(=O)O)c1cccc(S(=O)(=O)N2CCCC2)c1	-5%	-9%
O=C(NC1CCCCC1)c1cc(-c2cccc(Cl)c2)on1	41%[activator]	1%
CCc1ccc2occ(CC(=O)NCc3ccccc3)c2c1	-30%	-25%
CC(C)(C)NC(=O)N1CCN(c2nc(-c3ccccc3)ns2)CC1	-4%	-24%
Cc1cc(C)c2cc3c(N)c(C(=O)N4CCc5ccccc5C4)sc3nc2c1	-7%	-9%
CCOc1ccc(C(=O)N2CCCC2)cc1	i	-6%
Cc1cc(C)c(C)c(S(=O)(=O)Nc2cccc(-n3cnnn3)c2)c1C	-11%	-21%
Cc1nn(C(C)C(=O)NC(C)CCc2ccccc2)c(=O)c2cc3occc3n12 (stereo not given)	-10%	-26%
CC(C)(C)c1ccccc1NC(=O)CSc1nc(-c2cccs2)cc(C(F)(F)F)n1	-1%	-5%
COc1ccccc1NC(=O)CSc1nc2nccnc2c(=O)n1CCc1c[nH]c2ccccc12	-24%	-22%
Cc1c(C(=O)N2CCOCC2)oc2ccc(Br)cc12	-20%	-4%
CN1CC(c2ccccn2)C2(SC(=S)N(Cc3ccccc3)C2=O)C12C(=O)Nc1ccccc12 (stereo not given)	?	-29%
Cc1ccc(CNc2nc(C)c(C(=O)N(C)C)s2)cc1	-17%	4%
CC1CC(C)(C)NC(=S)N1CC(=O)NCc1ccc(F)cc1 (stereo not given)	-3%	-4%
CCN(CC)CCCn1c2c(c(SCC(=O)Nc3ccc(F)c(F)c3)nc1=O)CCC2	-5%	-7%
CN(C)CCOC(=O)c1ccc2[nH]c3c(c2c1)CSCC3	-13%	-13%
CC(C)CC1C(=O)N(Cc2cn(CCC3OCCO3)nn2)CCS(=O)(=O)N1Cc1ccc(-c2cccc(N(C)C)c2)cc1 (stereo not given)	-14%	-26%
CC(=O)N(CN1C(=O)CCC1=O)c1cccc(Cl)c1	-20%	-8%
Cc1ccc(CCCOC(=O)C[N+]2(C)CCCCC2)cc1	-5%	-6%
Cc1ccc(N2NC(=O)/C(=C/C=C/c3ccco3)C2=O)cc1C	?	5%

Entries of single compounds from above.
`CCN(CC)CCCn1c2c(c(SCC(=O)Nc3ccc(F)c(F)c3)nc1=O)CCC2` across the screens: VACV mCherry inh: -5%; Vaccinia Venus: -7%
`CN(C)CCOC(=O)c1ccc2[nH]c3c(c2c1)CSCC3` across the screens: VACV mCherry inh: -13%; Vaccinia Venus: -13%
`CC(=O)N(CN1C(=O)CCC1=O)c1cccc(Cl)c1` across the screens: VACV mCherry inh: -20%; Vaccinia Venus: -8%

Following part:
SMILES	VACV mCherry inh	Vaccinia Venus
O=c1sc(Nc2ccccc2)nc2ccccc12	2%	1%
COc1cc2[nH]c(=S)n(CCCN3CCOCC3)c(=O)c2cc1OC	-8%	-10%
COc1cccc(OCC(=O)Nc2ccccc2-c2ccccc2)c1	-23%	-21%
Cc1cc(C)c2c(C)ccnc2c1	-17%	-10%
CCN1CCN(C(c2ccccc2)c2c(O)cc(C)n(CCOC)c2=O)CC1 (stereo not given)	i	-8%
CC(=O)C[C@H]1c2ccccc2S(=O)(=O)N1C1CCCC1	-4%	-14%&-11%
COc1ccc(CCNC(=O)c2cc(COc3c(C)cccc3C)on2)c(OC)c1	-12%	-11%
COCCN(C(=O)c1ccc(N2C(=O)c3ccccc3C2=O)cc1)c1c(N)n(CC(C)C)c(=O)[nH]c1=O	i	-14%
O=C(c1cc(-c2ccc(Cl)cc2)n(-c2ccc(Cl)c(Cl)c2)n1)N1CCOCC1	-5%	-16%
Cc1ccc(CNC(=O)CC(C)S(=O)(=O)c2cc3c(cc2C)NC(=O)CO3)cc1 (stereo not given)	-7%&2%	-9%&3%
O=C1C(=O)C(c2cc(O)c(O)c(O)c2)Oc2cc(O)cc(O)c21 (stereo not given)	12%	-2%
Cc1ccc2oc3c(c(=O)c2c1)C(c1cccc(O)c1)N(Cc1ccccc1Cl)C3=O (stereo not given)	-8%	-4%
CCN1CCCC1CN(Cc1cc2ccc(C)cc2[nH]c1=O)C(=S)Nc1ccc(OC)cc1 (stereo not given)	-27%	-25%
O=C(O)CCS(=O)(=O)c1ccccc1Cl	-6%	4%
COc1ccc(N2CCN(C(=O)COc3ccc(Cl)cc3Cl)CC2)cc1	nt	?
O=P(c1ccccc1)(c1ccccc1)c1nc(-c2ccccc2)oc1NCc1ccccc1	i	-8%
Cc1cccc(CCNS(=O)(=O)c2ccc3c(c2)n(C)c(=O)c(=O)n3C)c1	i	0%
Cn1c(=O)c(C(=O)CCl)c(N)n(Cc2ccccc2)c1=O	?	13µM*
Cn1c(SCC(=O)Nc2cccc(C(=O)O)c2)nnc1-c1cc2cc(Br)ccc2o1	-7%	-7%
COc1ccc(CNC(=O)c2ccc(SC)cc2OC)cc1	i	-7%
Cc1ccsc1CN(Cc1ccco1)C(=O)c1ccc(Cl)cc1	-10%	-15%
COc1ccc(-c2cc(NC(C)=O)c3ncc(-c4cccc(C(F)(F)F)c4)n3c2)c(OC)c1	-7%	-9%
COc1cc(/C=C/C(=O)O)cc(S(=O)(=O)Nc2cccc(SC)c2)c1OC	-15%	-5%
CN(CC(=O)Nc1ccc(Cl)cc1)C(=O)c1ccc(-n2cncn2)c([N+](=O)[O-])c1	-7%	-19%
CCCC(NS(=O)(=O)c1ccc(C)cc1)C(=O)O (stereo not given)	-15%	-17%
Following part.
SMILES	VACV mCherry inh	Vaccinia Venus
COc1cc(C(=O)N2CCN(C(=O)COc3ccc4ccccc4c3)CC2)cc(OC)c1OC	nt	-9%
Cc1cccc(CC(=O)NCCS(=O)(=O)N2CCN(c3ccccc3)CC2)c1	i	-21%
COC(=O)CN1C(=O)C(O)(CC(=O)c2ccc(Cl)cc2)c2ccccc21 (stereo not given)	8%	7%
CNc1nc(OCC#N)nc(N2CCCCC2)n1	-1%	12%
NS(=O)(=O)c1ccc(NC(=O)COc2ccc(S(=O)(=O)NC3CCCCC3)cc2)cc1	-1%	8%
CCOc1ccc(-c2nnn(CC(=O)NCc3ccc4c(c3)OCO4)n2)cc1	nt	?
COc1ccc(NC(=O)C2(C)Cc3c(-c4ccc(NC(C)=O)cc4)ccnc3O2)cc1 (stereo not given)	-22%	-5%
c1ccc(Cc2nc(-c3ccccn3)no2)cc1	-11%	0%
Cc1cc(S(=O)(=O)NCC(C)C)ccc1OCC(=O)NCc1ccco1	-6%	-11%
CSc1nc(Nc2ccc(C)cc2C)cc(-c2ccccc2)n1	-8%	-10%
OCCN1CCN(c2cc(-c3ccc(CO)cc3)nc3ccnn23)CC1	11%	1%
C[C@]1(C(=O)NCCN2CCOCC2)C=C[C@@H](Cc2ccccc2)N1C(=O)c1ccccc1	-14%	-9%
CCC(C)C(=O)OC1C(O)C2C(CN3CC(C)CCC3[C@]2(C)O)C2C[C@]34O[C@@]5(O)C(OC(=O)C(C)(O)C(C)O)CCC3(C)C5C(OC(C)=O)C(OC(C)=O)C4[C@@]21O (stereo not given in full)	-13%	-7%
O=C(O)c1ccc(NC(=O)C2C3CCC(C3)C2C(=O)O)cc1 (stereo not given)	nt	-7%
CO[C@H]1C=CCCC=CC(=O)O[C@H]([C@H](C)C(=O)CCCC2CC(=O)NC(=O)C2)C(C)=C[C@@H](C)[C@@H]1O	-7%	2%
Cc1ccc(Cn2c(CCCNC(=O)c3ccco3)nc3ccccc32)cc1	-1%	11%
COC(=O)c1cc(C(=O)Nc2nnc(CC(C)C)s2)cc([N+](=O)[O-])c1	-4%	-13%
Cc1ccc(S(=O)(=O)Nc2ccc(Nc3nccn4c(-c5ccc6ccccc6c5)cnc34)cc2)cc1	?	-24%
O=C(Nc1cccc(C(F)(F)F)c1)C(SCCO)c1ccccc1 (stereo not given)	-19%	-15%
COc1ccc(C(=O)NC(NC(=O)c2ccc(OC)c(OC)c2)c2ccccc2F)cc1OC	i	-3%
COc1ccc(OCC(O)CNC(=O)c2ccc(C)cc2)cc1 (stereo not given)	i	9%
COc1cc2c(cc1OC)C1C/C(=N\O)C(CC(C)C)CN1CC2 (stereo not given)	nt	-14%
CC(=O)/C(=N/Nc1ccc(Br)cc1)Sc1cccc2cccnc12	?	-29%
CCN1CCN(c2ccc(S(=O)(=O)N3CCCCC3)cc2NC(=O)/C=C/c2ccc(OC)c(OC)c2)CC1	-10%	-22%
Cc1ccc(CNC(=O)C2CCN(S(=O)(=O)c3c(C)noc3/C=C/c3c(C)cc(C)cc3C)CC2)cc1	-5%[7.34 µM]	-6%[7.34 µM]

Continued, starting with the last 5 of the part before.
SMILES	VACV mCherry inh	Vaccinia Venus
COc1ccc(OCC(O)CNC(=O)c2ccc(C)cc2)cc1 (stereo not given)	i	9%
COc1cc2c(cc1OC)C1C/C(=N\O)C(CC(C)C)CN1CC2 (stereo not given)	nt	-14%
CC(=O)/C(=N/Nc1ccc(Br)cc1)Sc1cccc2cccnc12	?	-29%
CCN1CCN(c2ccc(S(=O)(=O)N3CCCCC3)cc2NC(=O)/C=C/c2ccc(OC)c(OC)c2)CC1	-10%	-22%
Cc1ccc(CNC(=O)C2CCN(S(=O)(=O)c3c(C)noc3/C=C/c3c(C)cc(C)cc3C)CC2)cc1	-5%[7.34 µM]	-6%[7.34 µM]
CCCNC(=O)C1(C)CCCN(C(=O)/C=C/c2ccccc2)C1 (stereo not given)	11%	-4%
Cc1ccc(NC(=O)C2CC(=O)OC23CCOC(C)(C)C3)cc1 (stereo not given)	-8%	5%
Nc1nc(N2CCN(Cc3ccccc3)CC2)n[nH]1	i	-18%
CC(=O)c1cnc2cc(-c3ccc(C)cc3)nn2c1C	-27%	-18%
COc1cc2c(cc1OC)C(c1ccc(Cl)cc1)N(c1cccc(C#N)c1)C(=O)C2 (stereo not given)	-7%	5%
COCCSc1nnc(NC(=O)COc2ccc3c(c2)OCO3)s1	2%	-6%
Cc1cc(C(=O)OCC(=O)N2CCOCC2)c2ccccc2n1	-5%	-6%
COc1cc(-c2cc(C(=O)Nc3ccc(O)cc3)c3ccccc3n2)cc(OC)c1OC	?	-8%
COC(=O)Cn1c(=NC(=O)CSC(C)=O)sc2ccccc21	2%	2%
O=C(CN1CCC(n2cnc3cc(F)ccc32)CC1)Nc1ccccc1Br	-17%	-19%
COc1ccc(Cl)cc1NC(=O)c1cccc(NC(=O)CCC(=O)O)c1	-2%	-6%
O=C(N/N=C/c1cccc([N+](=O)[O-])c1)c1cc2ccccc2o1	-1%	-25%
CCOC(=O)c1cnc2c(ccc3ccccc32)c1Nc1ccc(C(C)=O)cc1	?	?
Cc1ccc(/C(O)=C2/C(=O)C(=O)N(CCN3CCOCC3)C2c2cccs2)cc1 (stereo not given)	-10%	-5%
CCn1cc(C(=O)NCCOC)c(=O)c2cc(S(=O)(=O)N3CCOCC3)ccc21	-2%	-9%
COc1cc(OC)nc(Nc2nc(C(N)Cc3ccccc3)cs2)n1 (stereo not given)	-15%	-11%
S=C1NC(c2ccccc2)=CC(c2ccccc2)N1 (stereo not given)	?	-18%
CC(C)CNS(=O)(=O)c1ccc(CCC(=O)NC2CCCCC2)cc1	i	-5%
O=C(CC1(c2cccc(F)c2)CC(=O)N(Cc2cccnc2)C1=O)N1CCCCCCC1 (stereo not given)	-11%	-7%
Cc1ccc(NC(=O)C(c2ccc(Cl)cc2Cl)N2CCCC2)cc1 (stereo not given)	i	-9%
Cc1cc(C)cc(NC(=O)CSc2cc(C)[nH]c(=O)n2)c1	2%	1%
CCN1C(=O)c2cccc3cccc1c23	i	-13%
O=C(CSc1nnc(CN2CCOCC2)n1-c1ccc(Cl)cc1)Nc1cc(Cl)ccc1O	nt	-3%
Cc1ccc2oc(C(=O)Nc3nnc(C)s3)c(C)c2c1	-16%	-4%
Cc1nnc(SCC(=O)Nc2ccc(Cl)cn2)s1	-18%	-19%
Additional results
SMILES	VACV mCherry inh	Vaccinia Venus
O=C(CN1CCCC1)Nc1ccc(Br)cc1	i	-9%
CCOc1ccc(NC(=O)c2c(C)nn(Cc3ccccc3)c2Cl)cc1	-19%	-24%
Cc1cccc(NC(=O)CN2C(=O)N/C(=C/c3cc(C)n(-c4ccncc4)c3C)C2=O)c1	-23%	-9%
O=C(Nc1c(-c2ccc(F)cc2)nc2ccccn12)c1ccccc1F	-10%	-4%
COc1ccc(-c2ccc(C(=O)Nc3cccc(C(C)=O)c3)c3occc23)c(C)c1	-4%	-16%
CCOC(=O)c1ccc(NC(=O)CN2C(=O)c3cccnc3Oc3ccc(Cl)cc32)cc1	-8%	7%
Cc1cc(/C=N/NC(=O)c2c(Br)cnn2C)c(C)n1-c1cccc(Br)c1	-15%	-14%
O=c1[nH]c(=O)c2nc3ccccc3nc2[nH]1	-16%	-9%
COc1cccc(CNC(=O)C2CCCN(c3nn4c(=O)cc(C)nc4s3)C2)c1 (stereo not given)	nt	-24%
COC(=O)[C@@H]1C[C@H]2CC[C@H](O)C[C@H]2N1Cc1ccc(N2CCN(C)CC2)cc1	i	-2%
C=CCN1CCN(C(c2ccccc2)c2nnnn2CCC(C)C)CC1 (stereo not given)	-16%	-11%

High-throughput results: PubChem, National Center for Advancing Translational Sciences (NCATS)
